H5N1 antiviral: MDCK cell protection from H5N1 avian flu. 96,000 compounds, 0.07% hits. cytopathic effect, luminescence, 72 h; hits give high values; no value below 0 was filed and about half of the inactive calls have no number; reference of the scale not given here. AID 740. inhibition, % at 50 µM; in the data active means inhibition above about 25%
* marks the source's active call; other numbers are inactive results; i = inactive. A portion of the library; count on the stated rates, not on these rows.

canonical_smiles | H5N1 antiviral
CCCn1c(Nc2ccccc2)nc2ccccc21 | i
Oc1ccc(CNCC2COc3ccccc3O2)cc1 (stereo unspecified) | i
CN1CCc2nc(SCC(=O)Nc3cccc(F)c3)c(C#N)c(-c3cccs3)c2C1 | 2.6
O=C1N=C(N2CCCC2)S/C1=C\c1cccc(Br)c1 | 1.6
CN(C)c1nc(OCCNC(=O)COc2ccc(Cl)cc2Cl)nc(N(C)C)n1 | 0.3
Cc1ccc(-c2nn3nnnc3c3ccccc23)cc1 | 0.9
COc1ccccc1NS(=O)(=O)c1ccc(O)cc1 | 0.8
CCCCCCSc1nnc(-c2cnn(-c3ccccc3)c2-n2cccc2)n1C | 0.3
CN1OC(COC(=O)c2ccccc2)CC1c1ccccc1 (stereo unspecified) | i
COc1ccc(/C(O)=C/C(=O)C(=O)NNC(=O)C(O)(c2ccccc2)c2ccccc2)cc1 | i
Cc1cccc(CN2C(=O)CCSc3ccc(Cl)cc32)c1 | i
CCOC(=O)c1cc(C)sc1N1C(=O)C2C3C=CC(C3)C2C1=O (stereo unspecified) | i
CC(=O)c1ccc(OCC(C)C)c(CC(C(N)=O)C(N)=O)c1 | 0.4
COc1ccc(C(=O)Nc2cc(Cl)ccc2Cl)c(OC)n1 | 0.2
CN1CC[n+]2cnc3ccccc3c21 | i
COc1ccc(S(=O)(=O)N2CCN(c3cc(-c4ccccc4)nc4ncnn34)CC2)cc1 | i
COC(=O)Cn1c(CN2CCOCC2)nc2c1c(=O)[nH]c(=O)n2C | i
COc1cccc(-c2cc(C(=O)N3CCc4ccccc4C3)no2)c1 | 0.1
CCCC(=O)N1CCN(c2ccc([N+](=O)[O-])c(NC(C)c3ccccc3)c2)CC1 (stereo unspecified) | i
COC(=O)c1cc(C(=O)Nc2cc(C)ccn2)cc([N+](=O)[O-])c1 | i
Nc1cc(=O)[nH]c(SCC(=O)Nc2ccc(Br)cc2)n1 | i
COc1ccc(Cn2nnc3c(=O)[nH]c(C4CCCN(C(=O)c5ccccc5)C4)nc32)cc1 (stereo unspecified) | 0.2
CC(=O)NC(Cc1ccc(F)cc1)C(=O)O (stereo unspecified) | 0.2
COc1cc(-c2nc3n(n2)C(c2ccc(F)cc2)C2=C(CCCC2=O)N3)cc(OC)c1OC (stereo unspecified) | i
OC(CN1CCCCC1)Cn1c(C(F)(F)F)nc2ccccc21 (stereo unspecified) | 0.6
O=C(COC(=O)c1n[nH]c2ccccc12)Nc1ccc(S(=O)(=O)N2CCCC2)cc1 | 0.6
CCc1ccc(NC(=O)c2cc(-c3ccc(OC)cc3)on2)cc1 | i
Cc1ccc(C)c(N2CCN(Cc3nnnn3C3CCCCC3)CC2)c1 | i
Cc1ccc(CNC(=O)CCCNC(=O)c2ccc(Cl)cc2)n1C | 0.2
Cc1cc(C)nc(SCC(=O)Nc2ccc(S(=O)(=O)Nc3onc(C)c3C)cc2)n1 | 1.2
COC(=O)Cn1c(CCS(=O)(=O)c2ccc(C)c(C)c2)nc2ccccc21 | 0.1
COc1ccc([N+](=O)[O-])cc1NC(=S)NC(NC(=O)Cc1ccc(OC)c(OC)c1)C(Cl)(Cl)Cl (stereo unspecified) | i
COC(=O)c1c(NC(=O)CC2SC(N)=NC2=O)sc2c1CCCC2 (stereo unspecified) | 1.4
C=CCn1c(SCC(=O)c2c(N)n(CCC)c(=O)n(C)c2=O)nc2sc(CC)cc2c1=O | 0.4
Cc1cccn2c(=O)c3cc(C(=O)NCc4cccnc4)c(=N)n(C(C)C)c3nc12 | 0.8
O=C(C1COc2ccccc2O1)N1CCN(c2ccc(F)cc2)CC1 (stereo unspecified) | i
S=C1N(c2ccccc2)C(c2cccc3ccccc23)N2CCCN12 (stereo unspecified) | 0.5
O=C1c2ccccc2OC2(C=Cc3ccccc3O2)N1Cc1ccccc1 (stereo unspecified) | i
O=C(COc1ccc(Br)cc1)N1CCN(C2CCCC2)CC1 | 0.1
CCN(CC)c1ccc(N2C(=O)/C(=C/c3cccs3)SC2=S)cc1 | 2.1
Cc1nn(C(C)C(=O)NCCCc2ccccc2)c(=O)c2cc3occc3n12 (stereo unspecified) | i
COc1ccc(CN2CCCCC2C)cc1C (stereo unspecified) | i
CCc1ccc(NC(=O)C2CC(=O)N=C(N)S2)cc1 (stereo unspecified) | i
N#CC1=C(N)C(C#N)(C#N)[C@H](c2ccncc2)[C@H]2CC3(CC=C12)OCCO3 | 2.5
Nc1ccc(-c2n[nH]c(=O)c3ccccc23)cc1N | 0.1
CCNC(=S)NNC(=O)c1cc(C2CC2)nc2ccccc12 | 0.1
CC(C(=O)Nc1ccc(Cl)cc1)c1ncc(C(F)(F)F)cc1Cl (stereo unspecified) | 1.6
COc1ccnc(NCc2cccnc2)c1C#N | i
COc1cccc(C2=NOC(C(=O)Nc3ccc(C(C)=O)cc3)C2)c1 (stereo unspecified) | i
COc1ccc(CCNC(=O)c2ccc3c(c2)NC(=O)C(N2CCOCC2)S3)cc1OC (stereo unspecified) | i
CCOC(=O)C(=CNc1cccc(N)n1)C(=O)OCC | 1.2
Cc1[nH]nc2c1/C(=N\O)CC(C)(C)C2 | i
COc1ccc(CN2C(=O)c3ccccc3C(/C=N/OCc3ccc(Cl)cc3)C2=O)cc1 (stereo unspecified) | 14
O=C1Nc2ccccc2N(O)N1c1cc(-c2cccc(Cl)c2)no1 | 0.2
CCOC(=O)N1CCN(C(=O)CN(C)S(=O)(=O)c2ccc3c(c2)C(C)(C)C(=O)N3C)CC1 | 0.9
Nc1nnc(-c2ccncc2)s1 | 0.4
COC(=O)C(C)n1nc(C)n(-c2ccc(C)cc2)c1=O (stereo unspecified) | 0.1
c1ccc(-c2cc3c(ccc4nonc43)nn2)cc1 | 1.9
O=C(CCN1C(=O)COc2ccccc21)NCCN1CCN(c2ccccc2F)CC1 | i
Cc1ccc(C(=O)NC2CC(C)(C)NC(C)(C)C2)cc1C | i

15 successive entries from above, for reference:
canonical_smiles | H5N1 antiviral
CCNC(=S)NNC(=O)c1cc(C2CC2)nc2ccccc12 | 0.1
CC(C(=O)Nc1ccc(Cl)cc1)c1ncc(C(F)(F)F)cc1Cl (stereo unspecified) | 1.6
COc1ccnc(NCc2cccnc2)c1C#N | i
COc1cccc(C2=NOC(C(=O)Nc3ccc(C(C)=O)cc3)C2)c1 (stereo unspecified) | i
COc1ccc(CCNC(=O)c2ccc3c(c2)NC(=O)C(N2CCOCC2)S3)cc1OC (stereo unspecified) | i
CCOC(=O)C(=CNc1cccc(N)n1)C(=O)OCC | 1.2
Cc1[nH]nc2c1/C(=N\O)CC(C)(C)C2 | i
COc1ccc(CN2C(=O)c3ccccc3C(/C=N/OCc3ccc(Cl)cc3)C2=O)cc1 (stereo unspecified) | 14
O=C1Nc2ccccc2N(O)N1c1cc(-c2cccc(Cl)c2)no1 | 0.2
CCOC(=O)N1CCN(C(=O)CN(C)S(=O)(=O)c2ccc3c(c2)C(C)(C)C(=O)N3C)CC1 | 0.9
Nc1nnc(-c2ccncc2)s1 | 0.4
COC(=O)C(C)n1nc(C)n(-c2ccc(C)cc2)c1=O (stereo unspecified) | 0.1
c1ccc(-c2cc3c(ccc4nonc43)nn2)cc1 | 1.9
O=C(CCN1C(=O)COc2ccccc21)NCCN1CCN(c2ccccc2F)CC1 | i
Cc1ccc(C(=O)NC2CC(C)(C)NC(C)(C)C2)cc1C | i

The list continues.
canonical_smiles | H5N1 antiviral
Cc1ccc(OCc2nnc(SCC(=O)Nc3nccs3)n2-c2ccccc2)cc1C | 1.1
CCN(CC)c1ccc(/C=c2/sc3nnc(-c4ccccc4C)n3c2=O)cc1 | i
CCN1CCc2c(C#N)c(N3CCCCC3)nc(N3CCOCC3)c2C1 | 3.7
CCC(Sc1nc2cc(OC)c(OC)cc2c(=O)n1Cc1ccco1)C(=O)NCCOC (stereo unspecified) | i
CCOC(=O)C1CCCN(Cc2ccc(OC)cc2OC)C1 (stereo unspecified) | i
Cc1cccc(N2C(=O)SC(N(C)c3ccccc3)C2=O)c1 (stereo unspecified) | i
CCc1c(C)sc(NC(=O)c2cccs2)c1C(N)=O | i
COc1ccc(OC)c(NC(=O)CSCC(=O)O)c1 | i
O=C1c2ccccc2C(=O)N1CCCCN(C(=O)c1ccco1)c1ccc(Cl)cc1 | 1.3
O=C(NC1CCCCC1)C(c1ccccc1)N1CCc2ccccc21 (stereo unspecified) | 0.1
CN(CC(O)COc1ccc(OCC(O)CN(C)C2CCCCC2)cc1)C1CCCCC1 (stereo unspecified) | i
CC(=O)NC1C(=O)N=C(SCC(=O)NC2CCCCC2)NC1=O (stereo unspecified) | i
CCOc1ccc2nc(NC(=O)c3cnc(C)cn3)sc2c1 | i
CCOC(=O)c1cn[nH]c1N | i
O=C1NCCCC1C(=O)Nc1cccc(C(F)(F)F)c1 (stereo unspecified) | i
O=C(Nc1nc(-c2ccccc2Cl)cs1)c1cccnc1 | i
CCN(CC)S(=O)(=O)c1cc(C(=O)Nc2nncs2)c(Cl)cc1Cl | i
Cn1cc(S(=O)(=O)N2CCc3ccccc3C2)c(=O)n(C)c1=O | 1.0
CCOc1c(Cl)cc(Cl)cc1CNCCNCCO | i
CCOC(=O)N1CCN(C(=O)c2ccc(NC(=O)CC)cc2)CC1 | 0.7
O=C(Nc1ccccc1C(=O)NCC1CCCO1)c1ccco1 (stereo unspecified) | 0.2
CCOC(=O)C1CCCN(C(=O)c2ccc(OC(C)=O)cc2)C1 (stereo unspecified) | i
O=C(N/N=C/c1ccco1)c1cc(-c2ccc3ccccc3c2)n[nH]1 | 4.1
CC1=C(C(=O)OC(C)C)C(c2cccc(F)c2)N2C(=O)C(C)SC2=N1 (stereo unspecified) | i
O=C(Nc1ccc(Br)cn1)C1CCCN1S(=O)(=O)c1ccccc1 (stereo unspecified) | 0.7
CCOC(=O)N1CCC(NC(=O)c2ccc3nc4ccccc4c(=O)n3c2)CC1 | 0.2
COc1ccc(-n2cnnc2SCc2cnc(-c3ccccc3)s2)cc1 | 0.3
CCOc1ccc(NC(=O)CN2CCN(CC(=O)Nc3ccc(F)cc3)CC2)cc1 | i
C/C(N)=C(/C#N)C(=O)COC(=O)CCSc1ccccc1Cl | i
CCC1CCCCN1C(=O)N[C@@H](Cc1ccccc1)C(=O)O (stereo partly specified) | i

Continuation.
SMILES	H5N1 antiviral
CC(=O)c1c(C)[nH]c(C(=O)COc2cc(C)ccc2C(C)C)c1C	i
CCn1c(=O)n(CC)c2cc(S(=O)(=O)NCCOc3ccccc3)c(C)cc21	0.3
CCOC(=O)N1CCN(CCC(=O)Nc2ccc(OC)cc2)CC1	0.5
Cc1ccc(S(=O)(=O)NCCCCC(NC(=O)OC(C)(C)C)C(=O)O)cc1 (stereo unspecified) (tested in a mixture with another compound)	i
O=C(COc1nnnc2ccccc12)N1CCCc2ccccc21	0.5
COc1ccc(C2(O)CCN(C(=O)c3c(F)cccc3F)CC2)cc1	1.3
Cc1cc(N2C(=O)CC(Cc3ccc(Cl)cc3)C2=O)no1 (stereo unspecified)	i
Cc1ccc2cc(CN(C(=O)c3ccco3)c3ccccc3)c(=O)[nH]c2c1	0.1
Cc1[nH]c2ccccc2c1/C=C(\C#N)C(=O)NC(C)c1ccccc1 (stereo unspecified)	4.4
O=C(NCC1CCCO1)c1cc(-c2ccc(Cl)cc2Cl)on1 (stereo unspecified)	i
Cc1ccc(C)c(N(CC(=O)N(C)C)S(C)(=O)=O)c1	i
CN1CCN(Cc2c(O)c(Cl)cc3c(-c4ccccc4)cc(=O)oc23)CC1	0.4
C=CCn1c(NCCOC)nc2c1c(=O)n(C)c(=O)n2C	0.5
CCC(C(=O)N1CCc2cc(OC)c(OC)cc2C1)c1ccccc1 (stereo unspecified)	1.6
CC1CCN(c2c(NCc3ccc(C(=O)N4CCc5ccccc54)cc3)c(=O)c2=O)CC1	i
Cn1c(CN2CCOCC2)nnc1SCC(N)=O	i
COn1c(=O)c(=O)n(OC)c2ccccc21	i
CCOc1ccc2nc(NS(C)(=O)=O)sc2c1	i
CCCCN(C(=S)Nc1ccccc1)C1CCS(=O)(=O)C1 (stereo unspecified)	0.1
O=C(CCc1ccc(S(=O)(=O)N2CCOCC2)cc1)Nc1ccc(N2CCOCC2)cc1	0.5
COC(=O)CCC/C=C1/SCC(NC(=O)c2ccccc2)C1O (stereo unspecified)	0.4
Cc1ccc2nsnc2c1S(=O)(=O)NCc1ccncc1	0.9
O=c1c2ccccc2n(Cc2cccc(F)c2)c(=O)n1C1CCCC1	1.4
CCOC(=O)c1nnn(-c2nonc2-n2cccc2)c1CCl	1.7
COC(=O)COc1ccc(S(=O)(=O)Nc2ccccc2SC)cc1	0.1

The final two compounds of the section before open the next one:
SMILES	H5N1 antiviral
CCOC(=O)c1nnn(-c2nonc2-n2cccc2)c1CCl	1.7
COC(=O)COc1ccc(S(=O)(=O)Nc2ccccc2SC)cc1	0.1
CCOC(=O)Nc1cc(=O)c2ccccc2o1	i
N#C/C(=C/c1ccc(N2CCOCC2)c([N+](=O)[O-])c1)C(N)=O	0.4
CC(=O)c1c(N2CCN(c3ccccc3)CC2)nc(=S)n(-c2ccccc2)c1C	1.0
COc1ccc(N2CCN(Cc3nc(N)nc(Nc4ccccc4OC)n3)CC2)cc1	i
Cc1ccnc2c(N3C(=O)C4C5C=CC(C5)C4(C)C3=O)cccc12 (stereo unspecified)	i
O=C(CCCC(=O)N(CC(=O)NC1CCCC1)Cc1ccc(F)cc1)Nc1ccccn1	0.5
COC(=O)C1=C(C)N(c2cccc(C(C)=O)c2)C(=O)C1	1.3
Cc1cccc(NC(=O)CSc2nnc(CCC(=O)Nc3ccc(C)c(Cl)c3)n2C)c1	0.1
Cc1cccc(OCCNC(=O)c2ccc(Oc3ccc(C(F)(F)F)cc3[N+](=O)[O-])cc2)c1	0.8
CCOC(=O)C(C(=O)OCC)C(CC(=O)C1CC1)c1ccccc1 (stereo unspecified)	0.3
Cn1nc(-c2ccc(Cl)cc2)c2cc(C(=O)N3CCN(C(=O)c4ccco4)CC3)sc21	i
CCOc1cc(NC(=O)c2ccco2)c(OCC)cc1NC(=O)CCC(=O)NCc1cccnc1	2.0
COC(=O)Nc1ccc2c(c1)ncn2C1CCCCC1	0.2
Cc1cc(NC(=O)c2ccc(S(=O)(=O)N(C)C)cc2)n(-c2ccccn2)n1	i
O=C(Nc1ccc(Cl)cc1Cl)C1=Cc2ccccc2OC1	i

Source: PubChem BioAssay
